# Calb biofilm kill: clotrimazole potentiators killing C. albicans biofilm, primary screen, 4-compound mixtures; 120,000 compounds, 0.02% hits; C. albicans biofilm persisters + clotrimazole, fluorescence viability; primary screen in compound mixtures of four per well; inhibition, % at 7.6 µM;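 active = inhibition above 30.3% in the primary screen of four-compound pools, then above 30% when the compound was retested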;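 note: compounds exposed to preformed 24 h biofilms for 48 h; the number belongs to the whole pool; some results filed as inactive read as strong as hits; inactives centre near 12; 0% = biofilm with clotrimazole alone and 100% = kill control; retested singly at about 60 µM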
#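 Probe or stimulus – Clotrimazole 50 µg/mL co-treatment · System – C. albicans biofilms · Schedule – 24 h biofilm formation, then 48 h compound exposure, 37 °C · Evaluation – percent inhibition of biofilm viability · Technique – 2-h Alamar Blue fluorescence, 535/590 nm excitation/emission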
# An asterisk follows results filed as active; & = joins results of further samples. These rows are one share of the data (hit frequency here may not be typical).
Compound | Calb biofilm kill
COc1ccc(/C=N/NC(=O)c2cccnc2)cc1CN1CCCc2ccccc21 | 18
COc1ccc(-c2cc(N3C(=O)Nc4ccccc4N3O)n[nH]2)cc1 | 12
CCN(CC)S(=O)(=O)c1cc(F)ccc1OC | 16
COc1cc(NC(=O)c2cccc(Cl)c2)c(OC)cc1NC(=O)CN1CCCCC1 | 4
COc1cc(/C=N/n2nnnc2N)ccc1OCc1c(C)no[n+]1[O-] | 10
CCOC(=O)N1CCC(Nc2c(NCCCN3CCN(C4CCCCC4)CC3)c(=O)c2=O)CC1 | 9
CNNC(=S)Nc1cccc(SC)c1 | 20
COc1ccc(N(CC(=O)NCc2cccnc2)S(=O)(=O)c2ccccc2[N+](=O)[O-])c(OC)c1 | 29
CC(=O)Nc1ccc(/C=N/NS(=O)(=O)c2cc(C)ccc2C)cc1 | 17
CSc1cccc(NC(=S)N(CCCN2CCCC(C)C2)Cc2cccs2)c1 (stereo unspecified) | 17
O=C(NC1CCCCC1)c1ccc(S(=O)(=O)c2ccccc2Cl)c([N+](=O)[O-])c1 | 9
O=C(COc1ccccc1)NCCn1ccc2ccccc21 | 10
CC(Nc1nc(-c2ccccc2O)nc2ccccc12)c1ccccc1 (stereo unspecified) | 25
S=C1NCCc2ccc(Cl)cc2C1c1ccccc1 (stereo unspecified) | 14
O=C(Cc1cnc2ncnn2c1)N1CCc2c([nH]c3ccccc23)C1c1ccccc1F (stereo unspecified) | 24
Cc1ccccc1CN(C)CC(=O)Nc1cccc(S(=O)(=O)N(C)c2ccccc2)c1 | 8
CCN1C(=O)CCC(C(=O)O)C1c1ccc(OC)cc1 (stereo unspecified) | 10
CCO[C@H]1OC(C(=O)NC2CC2)=C[C@@H](c2ccc(C(F)(F)F)cc2)[C@@H]1CCCO | 23
C/C(=N\NS(=O)(=O)c1ccc(C)cc1)c1cc2ccccc2oc1=O | 27
Cc1cccc2cc(COC(=O)c3cccc([N+](=O)[O-])c3)c(=O)[nH]c12 | 6
Cc1ccccc1Nc1nc(N)nc(COC(=O)c2ccccc2)n1 | 19
Cn1cccc1/C=C(/C#N)c1ccc(F)cc1 | -4
CC(=O)OCCSc1c(-c2ccccc2)c2cc(Cl)ccc2[nH]c1=O | 12
CC1CCCN(C(=O)C(C)Nc2cc(Cl)ccc2N2CCOCC2)C1 (stereo unspecified) | 9
CCOc1ccc2c(c1)c(N=NC(=N)N)c(O)n2C | 12
N#C/C(=C(/O)c1ccc(F)cc1)c1nc2ccccc2s1 | 6
O=C(NCCCn1ccnc1)C(=O)NCC1OCCN1S(=O)(=O)c1ccc(Br)cc1 (stereo unspecified) | 20
CC1(C)OC2OC(COC(=O)c3ccc([N+](=O)[O-])cc3)C3OC(C)(C)OC3C2O1 (stereo unspecified) | 21
Cc1ccc(OCc2ccc(C(=O)Nc3nc4ccccc4n3C)o2)c([N+](=O)[O-])c1 | 14
Cc1ccc(/C=N/NC(=S)NC2CCCCC2)o1 | 16
CCOC(=O)N1C=CC=C[C@@H]2[C@@H](N3C(=O)c4ccccc4C3=O)C(=O)N21 | 5
COc1ccc(NS(=O)(=O)c2cc(NC(=O)c3cnc(C)cn3)ccc2N2CCCC2)cc1 | 15
COCCNc1ccc(S(=O)(=O)N2CCCC2)cn1 | 13
COc1ccc(C2C(C(=O)c3ccccc3)=C(C)Nc3nc4ccccc4n32)cc1OC (stereo unspecified) | 9
Cc1cc(Br)ccc1S(=O)(=O)n1ccnc1C | 17
Cc1cc(C)nc(SCC(=O)Nc2cccc(S(=O)(=O)N(C)C)c2)n1 | 4
N#Cc1c(-c2ccc(Cl)cc2)ccnc1N1CCOCC1 | -1
Cc1cc(C)c(NC(=S)N(CCN2CCCCC2)Cc2ccco2)c(C)c1 | 5
O=C(CCc1nc(-c2ccccc2Cl)no1)NCc1ccco1 | 12
NC(=O)C1CCN(C(=O)Cc2ccc([N+](=O)[O-])cc2)CC1 | 12
Nn1c(SCc2ccccn2)nncc1=O | 1
Cc1ccc(S(=O)(=O)NC2c3cccc4cccc(c34)C2Sc2ncccn2)cc1 (stereo unspecified) | 9
COc1ccc(CNC(=O)C2CCC(CNc3c(N4CCC(C)CC4)c(=O)c3=O)CC2)cc1 (stereo unspecified) | 23
CCN1CCN(C(=S)NCC2CCCO2)CC1 (stereo unspecified) | 10
CN(C)C(=S)c1ccc(N(C)C)cc1 | 9

# 2 entries from above, as labelled records.
CN(C)C(=S)c1ccc(N(C)C)cc1
  Calb biofilm kill: 9

Cc1ccc(OCc2ccc(C(=O)Nc3nc4ccccc4n3C)o2)c([N+](=O)[O-])c1
  Calb biofilm kill: 14

# (list continues)
Compound | Calb biofilm kill
CCn1cc(CNC(=O)CCc2nnc(CCC3CCCCC3)o2)cn1 | 26
CCOC(=O)/C(=C/C=C/c1ccccc1)NC(=O)c1ccccc1 | 0
C=C1CCN(Cc2ccccc2)S(=O)(=O)c2ccccc21 | 4
CCc1cccc2c(=O)c(C(=O)NCCCOC)c[nH]c12 | 2
CCOC(=O)c1cc(NC(=O)c2ccc(C)cc2)c(=O)oc1C(F)(F)F | 17
CCn1cnc2sc(C(=O)Oc3cccc(C)c3)c(C)c2c1=O | 9
CC(C)(C)c1ccc(C(CC(=O)O)NC(=O)Cc2ccc(F)cc2)cc1 (stereo unspecified) | 14
C/C(=N\Nc1ncc(Cl)cc1Cl)c1ccc(S(=O)(=O)NCc2ccco2)cc1 | 27
C/C=C/C(=O)OCC(=O)Nc1cc(-c2cc(C)c(C)cc2C)nn1-c1ccccc1 | 18
O=C1O/C(=C/c2ccccc2)N=C1c1ccccc1 | 8
CC(C)(C)NC(=O)CSc1nc2scc(-c3ccccc3)c2c(=O)[nH]1 | 18
Cc1oc(-c2cc3c(cc2Cl)OCO3)nc1CN1CCCC(C(=O)N2CCOCC2)C1 (stereo unspecified) | 8
N/C(=N\OC(=O)COc1ccc([N+](=O)[O-])cc1)c1ccncc1 | 6
NNC(=O)CNC(c1ccccc1)c1cc(Br)ccc1NC(=O)c1cccc(Cl)c1 (stereo unspecified) | 7
Nc1[nH]nc2c1NN(c1ccc(Cl)cc1Cl)N2 | 13

# Reprinted from the part before: 2 entries, then new ones.
Compound | Calb biofilm kill
NNC(=O)CNC(c1ccccc1)c1cc(Br)ccc1NC(=O)c1cccc(Cl)c1 (stereo unspecified) | 7
Nc1[nH]nc2c1NN(c1ccc(Cl)cc1Cl)N2 | 13
Cc1nn(Cc2ccccc2Cl)c(C)c1NC(=O)CSc1n[nH]c(C)c1[N+](=O)[O-] | 21
O=C(CC1C(=O)NCCN1Cc1cccc(Oc2ccccc2)c1)NCCc1cnccn1 (stereo unspecified) | 14
Cc1nn(Cc2ccccc2)c(C)c1C(=O)NCCN1C(=O)S/C(=C\c2ccccc2)C1=O | 15
COc1ccccc1Oc1ccc(S(=O)(=O)N2CCN(C)CC2)cc1 | 12
Cc1ccc(S(=O)(=O)Nc2nc(C)cc(NN)n2)cc1 | 10
CC(O)c1nc2ccccc2n1CC(=O)N1CCN(c2ccccc2)CC1 (stereo unspecified) | 8
Cc1ccc(C(=O)N2C3=C(CCCC3)C(=O)NC23CCCCC3)cc1 | 9
CC1(C)NC(C)(C)/C(=C\c2cccs2)C(=O)C1=O | 23
CC[N+](CC)(CC)C/C=C/CN1CCCCC1 | 3
CC1CC(NC2=NCCS2)CC(C)(C)C1 (stereo unspecified) | 0
CCc1ccc2[nH]c(O)c(N=NC3=NC(=O)CS3)c2c1 | 15
C#CCOCCOCCOCCNc1nc(N2CCN(C(=O)C([C@@H](C)CC)n3cc(C(N)Cc4ccc(O)cc4)nn3)CC2)nc(N2CCN(C(=O)[C@H](CCC(=O)O)n3cc(C(N)CC(C)C)nn3)CC2)n1 (stereo partly specified) | 20
CCOC(=O)CSC1=N/C(=C\c2ccc(OC)c(OC)c2)C(=O)N1C | 18
O=C(COC(=O)C1(c2cccc(F)c2)CCCC1)NCc1cccs1 | 12
COc1ccc(/C=N/NC(=O)Cc2n[nH]c(=O)[nH]c2=O)cc1 | 12
CC(C)NC(=O)CSc1nnc(-c2ccc(F)cc2)c2ccccc12 | 18
CCO[C@H]1OC(C(=O)N2CCOCC2)=C[C@@H](c2ccccc2)[C@@H]1CCCO | 20
CC(Sc1nnc(-c2ccccc2)c(-c2ccccc2)n1)C(=O)Nc1ncc(Cl)cc1Cl (stereo unspecified) | 1
O=C(CSc1ccc(F)cc1)N1CCN(S(=O)(=O)c2ccccc2)CC1 | 0
CCCCNC(=O)c1cccc2c(=O)c(C)c(-c3ccccc3)oc12 | 4
CS(=O)(=O)c1ccc(Cl)c(NC(=O)COC(=O)CNC(=O)c2ccccc2)c1 | 11
O=C(O)c1nn2cc(CCO)cnc2c1Cl | 18
CC(=O)Nc1ccc(S(=O)(=O)N2CCN(CCN3CCOCC3)CC2)cc1Cl | 24
O=C(O)c1cc(N/N=C/C(Cl)=C/c2ccccc2)ccc1Cl | 13
C/C(=N/NC(=O)c1cccs1)c1c(C)[nH]n(-c2nc3ccccc3s2)c1=O | 5
Cc1cc(C)[n+](-c2ccc(Oc3ccccc3)c(S(=O)(=O)[O-])c2)[nH]1 | 20
Cc1c(N=Cc2cccnc2)c(=O)n(-c2ccccc2)n1C | 7
CCCOc1ccc(N2C(=O)CC(N(Cc3ccc(OC)cc3)C(=S)Nc3ccccc3)C2=O)cc1 (stereo unspecified) | 3
Cc1cc(C)cc(N2C(=O)CC(Cn3nc(C)cc3C)C2=O)c1 (stereo unspecified) | 12
COc1cc(CCC(=O)Nc2ccc(C)c(S(=O)(=O)N(C)C)c2)cc(OC)c1OC | 3
CCOc1ccc(NC(=O)C(=S)NC2CCCCC2)cc1 | 23
Cn1c(=O)cc(Cl)[nH]c1=O | 14
CCOC(=O)C(=Cc1ccc(Br)cc1)C(=O)OCC | 15
COc1ccc(-c2noc(CN(C)CCC3CCCCO3)n2)cc1 (stereo unspecified) | 12
Oc1ccc(/C=N/N2CCN(C3c4ccccc4-c4ccccc43)CC2)cc1 | 17
CCN(CC)S(=O)(=O)c1cc(NC(=O)C(C)N2CCN(c3ccccn3)CC2)ccc1C (stereo unspecified) | 2
Cc1onc(-c2c(F)cccc2Cl)c1C(N)=S | 27
CCOC(=O)C1(Cc2cccc(OC)c2)CCN(CCO)CC1 | 3
COc1ccc(-c2cc(C(=O)Nc3ccc(C(N)=O)cc3)c3ccccc3n2)cc1OC | 12
COc1cc(/C=C(\C#N)c2nn(CCO)c(N)c2C#N)cc(OC)c1OC | 19
C/C(CC(=O)NCCN1CCOCC1)=N\NC(=O)c1ccncc1 | 12
N#C/C(=C\c1cccs1)C(=O)c1ccccc1 | 12
CC(=O)OCC(=O)Nc1c(C)cccc1C | 10
O=C1N/C(=N/N=C/c2ccc(F)cc2)SC1c1ccccc1 (stereo unspecified) | 22
CCOC(=O)c1sc2nc(C)nc(N3CCN(c4ncccn4)CC3)c2c1C | 16
CN(C(=O)COC(=O)c1cc(S(=O)(=O)N2CCCCC2)ccc1N1CCOCC1)C1CCS(=O)(=O)C1 (stereo unspecified) | 21
COc1ccccc1C(=O)NCC(c1cccnc1)N(C)C (stereo unspecified) | 11
Cc1ccc(NC(=O)c2cnc(N3CCN(c4ccccn4)CC3)c3ccccc23)c(Br)c1 | 17
COCCN1C(=O)c2cc(C(=O)Nc3ccc(C)c(F)c3)ccc2C1Nc1ccc(C)c(F)c1 (stereo unspecified) | 2
CC(C)N(C(=O)COC(=O)[C@@H]1CC(O)CN1S(=O)(=O)c1ccccc1[N+](=O)[O-])C(C)C (stereo partly specified) | -9
CCc1ccc(N2C(=O)CC(N(CC3CCCO3)C(=O)/C=C/C(=O)O)C2=O)cc1 (stereo unspecified) | 6
Cc1cc(NC(=O)Cn2ccsc2=N)c([N+](=O)[O-])cc1C | 7
CCOC(=O)CNC(=O)C1COc2ccccc2O1 (stereo unspecified) | 14
COc1ccc(NC(=S)N(CCc2c(C)[nH]c3ccccc23)Cc2ccco2)cc1 | 8
O=C(OCC(=O)c1cccs1)c1ccc([N+](=O)[O-])o1 | 8
Cc1cc(Cl)n2c(nc3ccccc32)c1C#N | 21
COc1cc(C(=O)NNC(=O)c2ccc(NC(=O)C(C)(C)C)cc2)cc(OC)c1OC | 3
COc1ccc(-c2cc(C(=O)OCC(=O)Nc3ccc4c(c3)OCO4)c3ccccc3n2)cc1 | 13
CCc1ccccc1OCC(=O)OCC(=O)c1c(N)n(C)c(=O)n(C)c1=O | 12
CCCCc1nc(SCCN2CCOCC2)c2c(=O)n(C)c(=O)n(C)c2n1 | 15

# Taken from the results shown for reference:
Compound | Calb biofilm kill
COc1ccc(-c2cc(C(=O)OCC(=O)Nc3ccc4c(c3)OCO4)c3ccccc3n2)cc1 | 13
CCc1ccccc1OCC(=O)OCC(=O)c1c(N)n(C)c(=O)n(C)c1=O | 12
CCCCc1nc(SCCN2CCOCC2)c2c(=O)n(C)c(=O)n(C)c2n1 | 15

# The results go on:
Compound | Calb biofilm kill
O=C(Nc1c(Cl)ccc2nsnc12)c1cccnc1 | 9
O=C(COC(=O)Cc1c(Cl)cccc1Cl)NCCC1=CCCCC1 | 15
C[C@H]1O[C@H]1P(=O)(O)O | 1&14
Cc1ccc(CN2CCN(Cc3cnc(C)[nH]3)CC2CCO)cc1 (stereo unspecified) | 13
COc1cc(OC)cc(C2=NC3(CCC(C)CC3)NC2=S)c1 (stereo unspecified) | 9
O=C(CC1NCCNC1=O)Nc1ccccc1 (stereo unspecified) | 11
Cc1ccc(N(Cc2ccc(C(=O)Nc3c(C)n(C)n(-c4ccccc4)c3=O)cc2)S(C)(=O)=O)cc1C | 12
O=C(NCC1CCCO1)c1ccc(NS(=O)(=O)c2ccccc2)cc1 (stereo unspecified) | 8

# High-throughput results (PubChem)
